# GIV Gai3 FP = inhibitors of GIV peptide binding to Galpha-i3, primary screen, biochemical, fluorescence polarization, FITC-GIV GBA peptide, rat Galphai3 | 90 min; stronger effect = lower value; scaled: aluminum fluoride 0%, vehicle 100% | Guanine nucleotide-binding protein G(i) subunit alpha-3 (Rattus norvegicus), P08753 | percent of control (FP), % (no concentration beside the values) | 210,000 compounds, 0.42% hits;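 active means replicate mean at 85% of control or lower, very high polarization wells dropped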;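 further: wells of about 15 µL received 100 nL stock; the first replicate is given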
# Target sequence (P08753 whole entry, looked up): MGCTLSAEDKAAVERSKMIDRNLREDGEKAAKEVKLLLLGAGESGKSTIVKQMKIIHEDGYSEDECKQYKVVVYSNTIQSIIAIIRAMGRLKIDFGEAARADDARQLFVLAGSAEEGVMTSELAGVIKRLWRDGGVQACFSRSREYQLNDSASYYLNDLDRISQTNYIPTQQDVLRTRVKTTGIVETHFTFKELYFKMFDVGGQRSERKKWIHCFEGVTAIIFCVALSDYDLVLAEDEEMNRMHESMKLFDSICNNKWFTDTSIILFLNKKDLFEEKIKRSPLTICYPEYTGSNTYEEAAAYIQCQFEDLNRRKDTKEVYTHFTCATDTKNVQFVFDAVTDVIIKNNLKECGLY
# HCMV UL50-53 inh = inhibitors of HCMV UL50-UL53 interaction, biochemical, HTRF | HCMV UL50-UL53 nuclear egress complex (human cytomegalovirus) | inhibition, % (test concentration not listed) | normalized percent inhibition | AID 1918969, 2023 | 190,000 compounds, 0.15% hits;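 active means both replicates at 50% or more, plus weaker picks with an unusually low signal ratio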;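 further: stock transfer was 100 nL into about 20 µL; 0% = negative control wells and 100% = wells with untagged competitor protein; inactives centre near -12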
# Sa growth inh = S. aureus growth inhibition at 42 and 30 °C, primary screen, LtaS inhibitor project, RN4220, two temperatures; OD600, 20 h, 42 °C; stronger effect = lower value; relative growth, % (concentration not given with the values); 170,000 compounds, 0.53% hits; AID 720641, 2013;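 active means growth at 42 °C up to 50% and 20 or more points under that at 30 °C, or under 10% at both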;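 further: 300 nL library stock went into each well; scaled to the means of positive and negative controls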
# Sa growth inh second temp = further read-out of Sa growth inh, marked with its call; relative growth, %; measured here: growth at 30 °C;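 optical density after 20 h as mean of two plates; 100% = untreated growth and lower means inhibition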
# * = called active by the depositor; x = no result given; & = joins results of further samples.
# Results follow in this order: HCMV UL50-53 inh, Sa growth inh second temp, GIV Gai3 FP, Sa growth inh
CSc1c(-c2ccccn2)c(N)nn1C(=O)C1CCC1
    -39.4, 88.3, 101.8, 78.9
Cc1nc(-c2ccccc2)sc1C(=O)N1CCC(C(N)=O)CC1
    -35.4, 81.4, 95.5, 78.0
C=CCNC(=O)C1CCC(C(=O)NCC=C)CC1 (configuration not stated)
    -8.3, 101.5, 102.9, 106.3
COc1ccc(OC)c(CNC(=O)C(C)n2c(C)c3cnn(-c4ccccc4)c(=O)c3c2C)c1 (configuration not stated)
    -6.1, 80.1, 108.2, 82.8
CCCC(/N=C/c1cc(Cl)ccc1O)/N=C/c1cc(Cl)ccc1O
    20.6, 78.5, 96.9, 91.8
CCN1CCN(S(=O)(=O)c2cc(OCC(=O)NC3CCCCC3)c(C)cc2Cl)CC1
    -4.9, 96.6, 101.5, 102.6
COc1ccc(-n2cc(-c3ccc4c(c3)OCO4)n(CC(=O)Nc3cccc(C)c3)c2=O)cc1
    -5.3, 88.3, 101.8, 101.9
Cc1c(Cl)cccc1NC(=O)CCS(=O)(=O)c1cccc2nsnc12
    -78.1, 81.1, 102.4, 108.2
COc1ccc(/C=C2\SC(=O)N(CCC(=O)Nc3ccc(S(=O)(=O)Nc4nccs4)cc3)C2=O)cc1
    -17.3, x, 106.4, x
CCOC(=O)c1c(S(=O)(=O)NCC(=O)Nc2cccc(SC)c2)c(C)n(C)c1C
    x, 81.6, 100.0, 96.2
O=C(Nc1ccccc1)Oc1ccccc1N1CCCCC1
    -24.6, 83.3, 103.2, 105.2
COC(=O)c1ccccc1N(C)S(C)(=O)=O
    0.7, 82.7, x, 96.4
O=[N+]([O-])c1ccc(S(=O)(=O)N2CCn3cccc3C2c2ccccc2F)cc1 (configuration not stated)
    x, 98.5, 109.9, 105.6
CC(C)(C)C1=CC(=O)C(N2CCOCC2)=CC1=O
    -24.4, 73.6, x, 95.6
Cc1nc2ccccc2n(C)c1=O
    -30.2, 97.0, 111.4, 99.0
O=C1CSc2ccc(S(=O)(=O)NC3CCCCC3)cc2N1
    -6.6, x, 102.4, x
O=C(Nc1ncccn1)c1c[nH]c2ccccc2c1=O
    -14.2, 80.2, x, 101.8
CCCNC(=O)c1ccc2c(c1)ncn2-c1ccc(OCc2ccccc2)cc1
    x, 80.5, 97.7, 97.2
Cc1cc(-c2ccc(C)c(S(=O)(=O)NC(c3cccs3)C(C)C)c2)on1 (configuration not stated)
    x, 83.2, 102.0, 104.4
O=S(=O)(c1ccccc1)c1cc(O)ccc1O
    1.0, x, 102.5, x
COc1ccccc1N1CCN(C(=O)c2cn(C)c3ccc(S(=O)(=O)N(C)C4CCCCC4)cc3c2=O)CC1
    -22.3, 90.0, 106.0, 103.8
Cc1ccc(CCNC(=O)c2cn(C)c3ccc(S(=O)(=O)N(C)C4CCCCC4)cc3c2=O)cc1
    -32.9, 90.6, 100.1, 90.7
O=C(Cn1ccn(-c2ccc(F)cc2)c(=O)c1=O)c1ccc(F)cc1
    -40.9, 88.0, 104.3, 86.2
COc1ccc2cc3c(N)nn(C(=O)Cn4c(=O)oc5ccccc54)c3nc2c1
    4.7, 89.8, 106.4, 91.2
CCOC(=O)c1nc(NCCc2c(C)nn(CC)c2C)c2c(C)noc2n1
    -19.4, x, 105.4, x
C=CCN1C(=O)/C(=C2\SC(N3CCCCC3)=NC2=O)c2ccccc21
    x, 90.2, 106.3, 95.9
Cc1ccc(CSCc2ccc(C(=O)NCc3ccco3)o2)cc1
    4.4, 61.3, 102.9, 103.0
NC(=O)c1c(NC(=O)Nc2ccccc2)sc2c1CCCC2
    -1.0, 90.1, x, 164.0
O=C(c1cccnc1)N1CCN(C(c2ccccc2)c2ccccc2)CC1
    2.2, 118.7, x, 75.8
Cc1cc(=O)oc2cc(OC(C)C(=O)NN)ccc12 (configuration not stated)
    -22.6, 88.4, x, 75.8
Cn1cc(CC(=O)NCCN2CCN(c3cccc(Cl)c3)CC2)c2ccccc21
    x, 68.5, 96.6, 81.1
CCC1CCCCN1C(=O)COC(=O)/C=C/c1ccccc1Cl (configuration not stated)
    -70.3, 58.7, x, 92.9
CCOC(=O)c1c(C)c(C(=O)N2CCCCCC2)c(C)n1CC
    x, 92.7, 102.9, 108.1
CCN(Cc1nc(-c2cccc(C)c2)no1)C(=O)c1c(OC)cccc1OC
    -0.1, 71.0, 108.7, 64.6
COc1ccc(N(CC(=O)N2CCc3ccccc32)S(=O)(=O)c2c(C)[nH]c(=O)[nH]c2=O)cc1
    -2.4, 87.2, 108.0, 80.4
COc1cccc(OCC(=O)N2CCCc3ccccc32)c1
    3.7, 99.1, x, 100.5
c1ccn2cc(-c3ccc4c(c3)OCO4)cc2c1
    -14.7&-37.8, 81.0, 119.3, 99.0
O=C(O)C1CCCN(CCc2ccccn2)C1 (configuration not stated)
    6.8, 82.7, 102.8, 102.0
Cc1ccc(S(=O)(=O)Nc2ccc3nc(N4CCN(C)CC4)cc(C(=O)O)c3c2)cc1C
    -65.3, x, 103.4, x
CCOc1ccc(NC(=O)CCS(=O)(=O)c2ccc3c(c2)OCC(=O)N3)cc1
    x, 88.4, 100.9, 102.0
COc1ccc(CNC(=O)CN2C3CCCC2CC(=O)NC3)cc1 (configuration not stated)
    3.6, 91.3, 103.5, 103.8
Cc1ccccc1-c1nc2scc(CCNS(=O)(=O)c3ccccc3)n2n1
    x, 87.6, 107.1, 112.1
Cc1ccc(Cl)cc1NS(=O)(=O)c1ccc2c(c1)NC(=O)CCS2
    x, 70.5, 102.8, 137.4
CCC(=O)n1nc(-c2ccccc2Cl)nc1N
    -5.9, x, 96.5, x
COC(=O)Cn1cnc2sc3c(c2c1=O)CCCC3
    -26.3, 90.2, x, 96.9
CCOc1ccc(OCC)c(NC(=O)c2ccc3c(c2)N(Cc2ccccc2)C(=O)CS3=O)c1 (configuration not stated)
    x, 90.3, 96.5, 95.3
CC1CC(C)CN(CCCNS(=O)(=O)c2cccc3cccnc23)C1 (configuration not stated)
    x, 95.9, 107.6, 97.2
CC(=O)Nc1ccc(C(=O)Nc2ccc(C)cc2)cc1
    8.7, 94.1, x, 102.0
COC(=O)c1ccccc1-c1cc(C)no1
    0.3, 104.2, 102.0, 117.2
Cc1occc1C(=O)Nc1ccc2ccccc2c1
    -6.3, 76.5, 104.0, 80.3
CC1CCCCN1CCNC(=O)CN1C(=O)C2CCCCN2c2ccc(S(=O)(=O)N(C)C)cc21 (configuration not stated)
    -4.9, x, 109.4, x
CCCN(CCC)C(=O)c1c[nH]c2ccc(S(=O)(=O)N(C)c3ccc(Cl)cc3)cc2c1=O
    x, 88.8, 101.8, 110.8
O=C1/C(=C/c2cn(-c3ccccc3)nc2-c2ccc(Cl)cc2)SC(=S)N1C1CCS(=O)(=O)C1 (configuration not stated)
    -6.9, x, 105.0, x
O=C(CCC1N=C2c3ccccc3N=C(SCc3cccc(F)c3)N2C1=O)NC1CCCCC1 (configuration not stated)
    x, 97.3, 100.9, 87.5
CCOC(=O)C1=C(C)N=c2s/c(=C\c3cc([N+](=O)[O-])ccc3N3CCOCC3)c(=O)n2C1c1ccc(OC)cc1 (configuration not stated)
    -3.4, x, 104.2, x
CC1CN(C(=O)CCC(=O)NC2CCCC2)c2ccccc2O1 (configuration not stated)
    x, 82.4, 102.7, 86.6
O=C(NNc1ccccn1)C(c1ccccc1)c1ccccc1
    -0.6, 83.0, 103.3, 103.0
COc1ccccc1N1CCN(C(=O)C(Cc2ccccc2)N2Cc3ccccc3C2=O)CC1 (configuration not stated)
    -17.7, 81.5, 105.7, 88.7
CC(=O)c1ccc(NC(=O)c2cc(S(=O)(=O)N3CCOCC3)ccc2C)cc1
    -34.1, 92.3, 103.7, 99.4
c1ccc(N2CCN(c3c4c(nc5nncn35)CCC4)CC2)cc1
    -8.7, 90.8, 99.5, 97.7

# (list continues)
# Results follow in this order: HCMV UL50-53 inh, Sa growth inh second temp, GIV Gai3 FP, Sa growth inh
COc1ccccc1CNC(=O)c1cccn1-c1nnc(N2CCCC2)s1
    x, 86.0, 99.5, 101.0
COc1ccc(-n2nc(C(=O)Nc3cccc(C(F)(F)F)c3)c3c4ccccc4n(C)c3c2=O)cc1
    -24.6, 90.7, 102.9, 108.6
CC1(C)CC(=O)C2=C(C1)OC1=C(C(=O)CC(C)(C)C1)C2c1ccccc1Cl
    -0.4, 83.8, x, 98.5
COc1cc(OC)cc(-c2nc3ccccc3c(=O)n2OC(=O)c2cc(OC)ccc2Br)c1
    -12.7, x, 99.6, x
Cn1c(=O)c(-c2noc(C(=O)N3CCOCC3)n2)nn(-c2ccccc2)c1=O
    -81.9, x, 105.1, x
O=C1CCCC2=C1C(c1ccc(F)cc1)C1C(=O)c3ccccc3C1=N2 (configuration not stated)
    -45.0, 81.1, 100.8, 107.8
CCSc1nc(-c2ccc(C)cc2)cc(C(F)(F)F)c1C#N
    x, 88.8, 99.6, 133.7
Cc1nc2n(CC(=O)c3ccccc3)c3ccccc3n2n1
    -34.1, 80.5, x, 112.3
CCOc1ccc(-c2c(C#N)c(N)nc(OC)c2C#N)cc1
    29.0, x, 102.2, x
O=C(NC1CCN(Cc2ccccc2)CC1)c1ccc(Cn2c(=O)c3ccccc3n(Cc3ccc(F)cc3)c2=O)cc1
    2.6, 89.0, 104.9, 111.0
Cc1sc2ncnc(SCC(=O)N3CCCC3=O)c2c1C
    -9.2, 90.2, x, 74.9
Cc1ccc(NC(=O)Cn2cc3c(n2)CCC(C)C3)cc1C (configuration not stated)
    -17.4, 92.9, 102.4, 99.8
CCN(CC)c1cc(C)c2cc(NC(=O)c3cccc(F)c3)ccc2n1
    -5.7, 92.1, 101.1, 99.0
O=C(Cn1c(=O)n(Cc2ccccc2)c(=O)c2sc3ccccc3c21)Nc1ccccc1F
    17.5, 103.2, 106.4, 95.0
COc1ccccc1N1CCN(C(=O)CCc2nnc3n(C)c(=O)c4sccc4n23)CC1
    22.9, 96.9, 101.9, 87.8
Cc1ccc(C)n1-c1ncccc1OCc1nnc(-c2ccc3ccccc3c2)o1
    -46.9, 83.0, 106.0, 95.1
Cc1nnc(SCC(=O)Nc2sccc2C#N)s1
    -27.6, 93.6, 124.8, 98.2
CCc1ccc(NC(=O)Cn2cccc2)cc1
    2.1, 92.5, 103.1, 94.0
CC1=NN(C(C)(C)C)C(=O)C1
    -16.6, 76.6, 100.0, 83.3
CCN(CC)CCNc1ccnc2cc3ccccc3cc12
    -31.7, 81.2, 106.2, 89.8
CCc1cccc(NC(=O)COc2cc(=O)n(CC)c3ccccc23)c1
    6.3, 110.8, 101.5, 96.8
CCOCCCNC(=O)C1c2c(n(C)c3ccccc23)SCC(=O)N1c1cccc(OC)c1 (configuration not stated)
    -4.6, x, 97.4, x
CCN(CC)S(=O)(=O)c1ccc2c(c1)nc(C(F)(F)F)n2CCC(=O)Nc1ccc(C)c(C)c1
    5.1, x, 102.6, x
CCOC(=O)Cn1c(=O)n(C2CCCC2)c(=O)c2ccccc21
    1.1, 85.0, 101.2, 108.8
FC(F)(F)C1(C(F)(F)F)N=C(N2CCOCC2)OC(N2CCOCC2)=N1
    -14.7, 92.3, x, 81.3
COc1ccc2oc(=O)cc(CN3CCN(c4cccc(C)c4)C(C)C3)c2c1 (configuration not stated)
    -18.6, 79.4, 108.6, 75.3
O=C(CSc1nnc(-c2ccc(F)cc2)c2ccccc12)NC(=O)NCc1ccco1
    -12.4, 82.3, x, 91.6
COc1ccc(Cl)cc1N(C)C(=O)Cn1ncc2c1-c1ccccc1OC2
    -2.2, 90.2, 97.0, 121.5
Cc1c(O)c(=O)ccn1C
    -17.7&-8.3, 90.5, x, 95.1
CCCc1c(C)nc(-c2cccc(C)c2)[nH]c1=O
    -9.9, 86.8, 102.1, 94.2
Cc1cc(C(=O)N2CCC(C)CC2)nc2c1c(C)nn2-c1ccccc1
    x, 72.8, 104.3, 87.0
CC1CCCCC1NC(=O)COC(=O)c1ccc(C#N)cc1 (configuration not stated)
    -13.1, 86.6, x, 89.2
Cc1sc(-c2ccc(Cl)cc2)nc1CC(=O)O
    -23.2, 77.7, 95.8, 111.2
O=C(COC(=O)C1=COCCO1)NCc1ccc(Cl)cc1
    0.0, 93.2, x, 87.6
CN(CCc1ccccn1)Cc1ccc(Cl)cc1
    -19.8, 77.2, 100.2, 90.6
